Screening results (PubChem)
D2 agonist = Beta-Arrestin HTS for Positive Allosteric Modulators of the Human D2 Dopamine Receptor: Agonists | D(2) dopamine receptor (Homo sapiens), P14416 | DiscoveRx PathHunter D2 beta-arrestin, luminescence, 90 min; 100% = 57 uM dopamine signal | activation, % (no concentration beside the values) | actives 0.084% (n = 360,000) | AID 624465, 2012; in the data active = activation above about 40%; inconclusive = about 15% to 40%; inactive = below about 15%; also: compound concentration not given in the record; the text of the record calls up to 30% inactive
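Agonist mode: compounds alone added to overnight-plated D2 PathHunter cells for 90 min at 37 C, with 57 uM final dopamine (EC100) defining full response. Beta-arrestin recruitment detected by chemiluminescent reagent, read after 1 h at ambient temperature.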
CtBP-E1A inh = qHTS Assay for Inhibitors of the CtBP/E1A Interaction; actives 0.49% (n = 340,000); activity change, % (test concentration not listed); AID 651724, 2012; AlphaScreen GST-E1A/His-CtBP binding, 1536-well; hits give low values; control for the full effect not named in the record; in the data active means activity change below about -65%; inconclusive means about -30% to -65%; inactive means above about -30%; also: % is scaled to controls: 0 for no effect and ±100 for the full control effect; compound concentration not given in the record
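AlphaScreen with 125 nM GST-E1A and 125 nM His-CtBP (5X stocks) in Tris pH 8.0, 300 mM NaCl, BSA, Tween 20, TCEP. Compounds preincubated 2 h at 37 deg C, then glutathione donor/nickel acceptor beads added for 1 h at 37 deg C in dark.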
D2 PAM = Beta-Arrestin HTS for Positive Allosteric Modulators of the Human D2 Dopamine Receptor: Potentiators; D(2) dopamine receptor (Homo sapiens), P14416; DiscoveRx D2 beta-arrestin cells, luminescence, 90 min; 100% = 57 uM dopamine signal; potentiation, % (no concentration beside the values); actives 0.23% (n = 360,000); AID 624464, 2012; active = potentiation of 50% or more; inconclusive = 30% to 50%; inactive = 30% or less;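 also: compound concentration not given in the record; tested on top of an EC20 dose of dopamine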
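PathHunter beta-arrestin assay in DiscoveRx D2 cells. Compounds were added with an EC20 of dopamine (50 nM final) for 90 min at 37 deg C. Luminescence was read 1 h after detection reagent, with 57 uM dopamine as the EC100 control.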
gsp antag = qHTS for Antagonists of gsp, the Etiologic Mutation Responsible for Fibrous Dysplasia/McCune-Albright Syndrome: qHTS; gsp-mutant cells, cAMP HTRF, 30 min; control for the full effect not named in the record; Potency, µM (series often up to 76.9 µM), for inactives: at the top dose activity change, negative = inhibition, actives largely listed as inhibitors; actives 0.4% (n = 340,000); active = falling curve of any shape with a large fitted effect; inconclusive = falling curve, mostly with a smaller effect; inactive = flat or rising curve; cell line not stated here;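 also: intracellular cAMP measured with PDE inhibitor Ro 20-1724 present during compound exposure; potency is read from the fitted curve at half-maximal effect; % is scaled to controls: 0 for no effect and ±100 for the full control effect; nearly all actives have a fitted effect of over 65% in size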
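HTRF cAMP measurement after 30 min RT detection following 30 min, 37C compound treatment alongside […] (added as 300 uM solution) in G418-selected cells seeded at 2000/well and grown 16–24 h.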
Six1-Eya2 blk = qHTS Assay for Inhibitors of the Six1/Eya2 Interaction | AID 651725, 2012 | actives 0.56% (n = 360,000) | AlphaScreen GST-Six1/His-Eya2 binding, biochemical; hits give low values; control for the full effect not named in the record | Homeobox protein SIX1 (Homo sapiens) + Protein phosphatase EYA2 (Homo sapiens), … | activity change, % (no concentration beside the values); in the data active = activity change below about -65%; inconclusive = about -30% to -65%; inactive = above about -30%; also: % is scaled to controls: 0 for no effect and ±100 for the full control effect; compound concentration not given in the record
Target sequence (O00167 whole entry, looked up): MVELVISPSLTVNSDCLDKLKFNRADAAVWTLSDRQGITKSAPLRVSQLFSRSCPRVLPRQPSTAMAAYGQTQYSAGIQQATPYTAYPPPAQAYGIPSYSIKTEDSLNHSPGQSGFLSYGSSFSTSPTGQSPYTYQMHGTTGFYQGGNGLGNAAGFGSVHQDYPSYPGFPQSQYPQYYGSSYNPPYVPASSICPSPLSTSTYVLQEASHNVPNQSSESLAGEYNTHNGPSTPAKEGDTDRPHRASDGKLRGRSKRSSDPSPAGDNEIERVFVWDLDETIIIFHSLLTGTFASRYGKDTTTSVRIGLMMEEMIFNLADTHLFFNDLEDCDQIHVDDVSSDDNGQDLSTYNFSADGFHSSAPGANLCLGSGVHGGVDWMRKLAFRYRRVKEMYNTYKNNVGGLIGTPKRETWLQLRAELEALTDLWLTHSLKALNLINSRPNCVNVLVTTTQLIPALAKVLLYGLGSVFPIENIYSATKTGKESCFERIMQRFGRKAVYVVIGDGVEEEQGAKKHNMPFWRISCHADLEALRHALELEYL
Target sequence (Q15475 whole entry, looked up): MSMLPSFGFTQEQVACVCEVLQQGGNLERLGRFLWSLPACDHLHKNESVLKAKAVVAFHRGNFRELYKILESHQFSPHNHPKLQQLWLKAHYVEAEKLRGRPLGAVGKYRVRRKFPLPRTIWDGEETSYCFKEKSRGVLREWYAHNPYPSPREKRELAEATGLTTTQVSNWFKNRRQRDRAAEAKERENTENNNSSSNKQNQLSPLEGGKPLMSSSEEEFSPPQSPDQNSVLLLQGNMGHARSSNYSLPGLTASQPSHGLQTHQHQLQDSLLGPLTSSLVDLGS
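GST-Six1 + His-Eya2 (5X stock: 250/500 nM); Tris pH 8.0, 300 mM NaCl, 0.05% BSA, 0.02% Tween 20; GSH donor/Ni acceptor beads; 1 h 37 °C dark; AlphaScreen readout.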
gsp agonist = qHTS for Agonist of gsp, the Etiologic Mutation Responsible for Fibrous Dysplasia/McCune-Albright Syndrome: qHTS. actives 0.13% (n = 340,000). Potency, µM (titrated, usually from 76.9 µM), for the others: at the top dose activation (cAMP increase), hits mostly activators. AID 624287, 2012. gsp mutant cells, cAMP HTRF, 30 min; control for the full effect not named in the record; active = well fitted activation curve with a large enough effect; inconclusive = small, poorly fitted or top-dose-only effect, or another doubt; inactive = no such curve, though single readings can be large or run the other way; cell line not stated here;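 also: phosphodiesterase inhibitor Ro 20-1724 added with compounds to block cAMP breakdown; potency is read from the fitted curve at half-maximal effect; nearly all actives have a fitted effect of over 60% in size; about a fifth of the inactives were tested at one dose only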
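Cells stably selected in G418 were plated at 2000/well, grown 16-24 hr, then given compounds in DMSO with the PDE inhibitor […] (300 uM solution added) for 30 min at 37C; cAMP was read by HTRF.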
Starred values were filed as active, the others as inactive; ? = inconclusive; nt = no result given; [ ] = dose if it differs, or a comment.

SMILES | D2 agonist | CtBP-E1A inh | D2 PAM | gsp antag | Six1-Eya2 blk | gsp agonist
O=C(NC1CCCCC1)C1CCN(c2nccs2)CC1 | -1.7 | 7 | 6 | 6% | -1 | -13%
COc1cccc(OC)c1C(=O)Nc1ccccc1NC(=O)c1c(OC)cccc1OC | -2.5 | 5 | -4 | -1% | 3 | -2%[15.4 µM]
C[n+]1cn(Cc2ccc(C#N)cc2)c2ccccc21 | -5.4 | nt | -3 | 4% | -2 | -3%
NCC(=O)NCC(=O)OCc1ccccc1 | -5.1 | 10 | -3 | -8% | -1 | 7%
Cc1cc(C)n(-c2cc(N3CCN(S(=O)(=O)c4ccc5ccccc5c4)CC3)ccc2[N+](=O)[O-])n1 | -6.5 | -19 | 4 | -17% | -17 | -26%
O=C(c1ccco1)N1CCN(C(=O)c2cc(=O)[nH]c3ccccc23)CC1 | 1.0 | nt | -7 | 8% | -3 | 1%
CC(=O)c1ccc(NC(=S)N2CC(C)CC(C)C2)cc1 (stereo not drawn) | 0.9 | 8 | -2 | 3% | -1 | 7%
CCN(CC)c1ccc(/C=C2\C(=O)c3ccc(C(=O)O)cc3C2=O)cc1 | -3.5 | 19 | -4 | ? | -15 | 21%
COC(=O)c1ccc(-n2nnnc2SCC(=O)Nc2ccccc2OC)cc1 | -1.8 | 18 | 6 | -1% | 1 | -16%
CC1(Oc2cccc(F)c2)CCN(Cc2csc3ccccc23)C1 (stereo not drawn) | 2.6 | 18 | -20 | nt | 5 | nt
COc1ccccc1CCNC(=O)c1ccc(NC(=O)CC2SC(N3CCCC3)=NC2=O)cc1 (stereo not drawn) | -1.4 | 8 | -1 | 10% | -8 | 17%
O=C(Nc1ccc(Cl)cc1)c1nc[nH]c1C(=O)N1CCc2ccccc2C1 | -0.1 | 4 | -14 | 7% | 10 | nt
Cc1nn(CC(=O)O)c(C)c1C | -0.4 | 2 | 1 | 7% | -1 | 6%
Cc1ccc(SCC(=O)OCC(=O)NC(C)c2ccc(Br)cc2)cc1 (stereo not drawn) | 2.4 | -1 | -1 | -9% | 8 | -10%
COc1ccc(Cl)cc1NC(=O)c1cnccn1 | 1.3 | nt | 7 | -14% | 2 | -24%
COc1ccc(CCN(C)C(=O)C2CCCN(C3CCN(Cc4ccccc4)CC3)C2)cc1OC (stereo not drawn) | -5.0 | nt | -17 | 7% | 4 | -3%
CC(=O)c1ccc(N2CCN(C(=O)c3ccc(OCc4c(C)noc4C)cc3)CC2)cc1 | 1.7 | -7 | 5 | -20% | -2 | 4%
N=c1oc2cc(O)ccc2cc1C(=O)Nc1ccc(Cl)cc1 | 9.1 | 1 | 1 | 40µM* | 1 | ?
CCOC(=O)N/N=C/c1ccc(C)o1 | -0.7 | 3 | -11 | 11% | -1 | 1%
Cc1ccccc1NP(=O)(c1ccccc1)c1nc2ccccc2s1 (stereo not drawn) | -4.9 | 7 | 6 | -10% | -1 | -4%[15.4 µM]
COc1ccccc1N1CCN(C(=O)c2ccc3nc(-c4ccco4)c(-c4ccco4)nc3c2)CC1 | 0.3 | -27 | 24 | 9% | -22 | ?
CC(NC(=O)Nc1ccc(Cl)c(Cl)c1)C(c1ccccc1)N1CCOCC1 (stereo not drawn) | -7.5 | 22 | -3 | 3% | 12 | -11%
CCN(CC)c1ccc(/C=N/N2CCN(Cc3ccc(C)cc3C)CC2)c(O)c1 | -5.2 | 9 | -27 | 8% | -16 | 3%[15.4 µM]
CCCOc1ccc(C(CC(=O)O)NC(=O)c2ccc3c(c2)OCO3)cc1 (stereo not drawn) | -6.0 | 5 | -18 | 5% | 0 | -1%
Cn1cnc2cc(NCc3cccs3)ccc21 | -6.3 | 10 | -21 | 2% | -2 | -4%[15.4 µM]
C/C(N=Nc1nc2ccccc2s1)=N\Nc1ccccc1O | -12 | -23 | -18 | 1% | -27 | -45%[inhibitor]
Cc1ccc(C)c2[nH]c(=O)c(CCNC(=O)c3ccco3)cc12 | -2.2 | 5 | 1 | -7% | 10 | 16%
CCOc1ccc(-c2nnc3ccc(SCC(=O)N4CCN(c5ccccc5)CC4)nn23)cc1 | 1.1 | nt | -2 | -6% | 14 | 2%
Cn1c(SCC(=O)N2CCOCC2)nnc1-c1cnccn1 | -0.6 | 7 | -4 | 16% | 4 | 3%
C/C(=N/N=C(\C)c1ccccc1O)c1ccccc1O | 1.3 | 12 | 0 | 9% | 5 | ?
Cc1nnc(N2C(=O)C(O)=C(C(=O)c3ccco3)C2c2ccc(C(C)(C)C)cc2)s1 (stereo not drawn) | -5.4 | 3 | -11 | -5% | -5 | ?
COc1ccccc1NC(=O)CSc1nnc(Cn2cnc3ccccc32)o1 | -5.3 | -2 | -13 | -16% | 8 | -8%[15.4 µM]
c1ccc(Nc2c(-c3ccco3)nc3ccccn23)cc1 | 3.5 | 1 | 26 | -1% | -21 | 6%
Cc1ccc(S(=O)(=O)Oc2ccc(/C=C3/C(=N)N4C(=NC3=O)SN=C4S(C)(=O)=O)cc2)cc1 | 0.2 | nt | -9 | -16% | -1 | ?
CC(C)n1c(SCC(=O)Nc2ccccc2N2CCOCC2)nc2c1c(=O)n(C)c(=O)n2C | -1.7 | -1 | 4 | 8% | -3 | 26%
CC(OC(=O)Cn1[nH]c(=O)c2ccccc2c1=O)C(=O)Nc1cccc(Cl)c1 (stereo not drawn) | -2.6 | -14 | -18 | 0% | 8 | 12%
COc1cc(C(=O)OCCCN=C2NS(=O)(=O)c3ccccc32)cc(OC)c1OC | 5.0 | 1 | 1 | 3% | 2 | -6%
COc1ccc(CN(Cc2cc3cccc(C)c3[nH]c2=O)C(=O)N(C)C)cc1 | -4.3 | 4 | -12 | -10% | -1 | -17%
O=C(O)C[C@H]1c2ccc(C(F)(F)F)cc2S(=O)(=O)N1Cc1ccccc1 | -4.0 | 0 | -8 | 0% | 2 | nt
Cc1ccc(S(=O)(=O)N2CCN(CCNC(=O)C(=O)Nc3ccc(F)cc3)CC2)cc1 | 2.9 | 3 | 0 | 8% | 23 | 6%[15.4 µM]
CNc1[nH]ncc1[N+](=O)[O-] | -4.6 | 3 | -5 | 10% | -66* | 1%[15.4 µM]
Cc1cc(N2CCN(C)CC2)nc2ccc(NC(=S)NCCC(C)C)cc12 | -6.9 | nt | -16 | -4% | -11 | -15%
CN(C)S(=O)(=O)c1cccc(NC(=S)NCCCn2ccnc2)c1 | -4.9 | 0 | -21 | nt | -2 | 1%[15.4 µM]
COc1ccc(S(=O)(=O)N(C(C)=O)c2ccc3oc(=O)sc3c2)cc1 | 1.3 | -12 | 1 | -23% | -14 | 8%
C[C@H](CO)N1C[C@H](C)[C@H](CN(C)Cc2ccc(-c3ccccc3)cc2)Oc2ccc(NS(=O)(=O)c3ccccc3)cc2CC1=O | -2.3 | nt | -15 | -10% | -14 | 17%
COc1ccc(Sc2nc(-c3ccccc3)ncc2C(=O)O)cc1 | 8.0 | nt | 3 | -34% | 0 | -48%[15.4 µM]
c1ccc(-n2nnnc2Sc2ncnc3sc4c(c23)CCCC4)cc1 | -5.2 | 0 | 5 | ? | 2 | -3%
CC(OC(=O)c1ccc2c(c1)OCCO2)C(=O)NC1CCCCC1C (stereo not drawn) | -4.4 | -3 | 5 | 9% | -8 | 12%[15.4 µM]

A draw from above in order of length of the SMILES, high to low:
SMILES | D2 agonist | CtBP-E1A inh | D2 PAM | gsp antag | Six1-Eya2 blk | gsp agonist
COc1ccc(S(=O)(=O)N(C(C)=O)c2ccc3oc(=O)sc3c2)cc1 | 1.3 | -12 | 1 | -23% | -14 | 8%
CC(OC(=O)c1ccc2c(c1)OCCO2)C(=O)NC1CCCCC1C (stereo not drawn) | -4.4 | -3 | 5 | 9% | -8 | 12%[15.4 µM]
CNc1[nH]ncc1[N+](=O)[O-] | -4.6 | 3 | -5 | 10% | -66* | 1%[15.4 µM]

Carrying on.
SMILES | D2 agonist | CtBP-E1A inh | D2 PAM | gsp antag | Six1-Eya2 blk | gsp agonist
Cc1nn(Cc2ccccc2Cl)c(C)c1N | -4.2 | 2 | 3 | -12% | -4 | -13%
CC(=O)N(C)c1nnc(-c2ccccn2)s1 | -2.8 | 3 | 13 | 1% | 1 | -26%
O=C(c1cc(S(=O)(=O)N2CCCCC2)c(Cl)cc1N1CCOCC1)N1CCOCC1 | -2.0 | -1 | 0 | -1% | 12 | 0%
CCc1nnc(NC(=O)C2CCCN2S(=O)(=O)c2ccc(F)cc2)s1 (stereo not drawn) | 0.9 | 5 | 9 | -11% | -2 | 6%
CC(C)CC(C(=O)NCC1CCCO1)N(C(=O)Cn1nnc(-c2ccc(F)cc2)n1)c1cccc(C(F)(F)F)c1 (stereo not drawn) | -1.9 | -12 | -1 | -6% | -9 | -60%[inhibitor]
COc1ccc(F)cc1S(=O)(=O)Nc1ccncc1 | 3.9 | nt | -12 | -8% | -4 | 5%
CC(C)(C)C1CCC(=NNC(=S)Nc2cccnc2)CC1 (stereo not drawn) | -9.3 | -1 | -8 | 10% | -6 | 7%
O=C(COC(=O)c1cccnc1Cl)NC1CCCCC1 | -0.5 | nt | -7 | ? | -4 | 6%
Cc1cc(C)c2c(n1)sc1c(N3CCN(CCO)CC3)ncnc12 | 1.7 | -15 | -5 | 12% | -6 | 13%
Cc1ccc(C)c(NC(=O)Cn2cc(C(=O)C3CC3)c3ccccc32)c1 | 0.4 | 2 | -2 | -9% | 4 | 14%
Nc1nc(-c2ccc([N+](=O)[O-])cc2)cs1 | -1.5 | -1 | -12 | -1% | -9 | 3%
COc1ccc2c(c1)CCc1c(C(=O)NCC(C)C)noc1-2 | -3.1 | 10 | -21 | -14% | 3 | 32%
Cc1ccc(NS(=O)(=O)c2cc(Br)cnc2N)cc1C | 5.2 | 3 | -8 | -2% | 1 | 33%
CC(=O)c1c(N(C)C)ccnc1C(F)(F)F | -2.9 | 4 | -9 | -7% | 0 | 7%
C[C@@H]1O[C@@H](OC[C@H]2O[C@@H](Oc3c(-c4ccc(O)c(O)c4)oc4cc(O)cc(O)c4c3=O)[C@H](O)[C@@H](O)[C@@H]2O)[C@H](O)[C@H](O)[C@H]1O | -8.0 | 0 | -10 | 4% | 32 | nt
C/C(=N\NC(=O)COc1ccc2ccccc2c1)c1cccs1 | -7.3 | -1 | -15 | -28% | -14 | -10%
Cc1cc([N+](=O)[O-])nn1CCCC(=O)Nc1sc2c(c1C(N)=O)CCC(C)C2 (stereo not drawn) | -0.3 | 1 | -8 | 11% | -2 | -28%
